Vaccinia mCherry: vaccinia inhibition (mCherry reporter) | 310,000 tested, 0.63% active | Vaccinia virus mCherry reporter infection, fluorescence; about a quarter of the inactives have no number | Potency, µM (highest dose often 36.5 µM), without a hit: top-dose activity change, negative = inhibition, usual class: inhibitors | AID 720579; active = well fitted inhibition curve with a large enough effect; inconclusive = small, poorly fitted or top-dose-only effect; inactive = no such curve, though single readings can be large or run the other way; tested in A549 cells; note: nearly all actives have a fitted effect of over 35% in size; inactives centre near -10
VACV Venus inh: inhibitors of vaccinia virus (Venus reporter); Vaccinia virus Venus reporter expression, fluorescence; Potency, µM (titrated, usually from 36.5 µM), for inactives: at the highest dose activity change, negative = inhibition, hits mostly inhibitors; 330,000 tested, 0.46% active; AID 720580; active means well fitted inhibition curve with a large enough effect; inconclusive means small, poorly fitted or top-dose-only effect; inactive means no such curve, though single readings can be large or run the other way; tested in A549 cells; note: nearly all actives have a fitted effect of over 30% in size; inactives centre near -10
Numbers without * were called inactive; [ ] = remark or other dose. % is set by controls: 0 for no effect and ±100 for the full control effect; potency is the fitted concentration of half-maximal effect.

What do the screens show for `CC(=O)c1ccc(N2CCC(C(=O)O)CC2)cc1`?
Vaccinia mCherry: inactive; VACV Venus inh: -3%

How did Cc1ccc2c(c1)N(C(=O)CCC(=O)NC1CCCCCC1)CC(C)O2 (stereo not given) do in these assays?
Vaccinia mCherry: 4%; VACV Venus inh: -3%

What do the screens show for `CC[N+]1(C)CCC(O)(/C=C/c2ccccc2)C(C(=O)/C=C/c2ccccc2)C1` (stereo not given)?
Vaccinia mCherry: inconclusive; VACV Venus inh: inconclusive

What do the screens show for `BrCCc1ccccc1`?
Vaccinia mCherry: inactive; VACV Venus inh: -6%

What do the screens show for `COc1cccc(CNC(=O)c2ccc(CS(=O)c3ccccc3)o2)c1` (stereo not given)?
Vaccinia mCherry: -20%; VACV Venus inh: -12%

What do the screens show for `Cc1ccc(CN2CCN(C3CCC3)CC2CCO)cc1` (stereo not given)?
Vaccinia mCherry: -6%; VACV Venus inh: -10%

What do the screens show for `COc1ccc(Oc2nc(SC)nc3ccccc23)cc1`?
VACV Venus inh: -27%

Results for CN(C)S(=O)(=O)c1cccc(NC(=O)CNCc2ccccn2)c1 ?
Vaccinia mCherry: -21%; VACV Venus inh: -12%

What do the screens show for `O=C(NC(c1ccc2c(c1)OCO2)c1ccccn1)C1CCN(CCOc2ccccc2)CC1` (stereo not given)?
Vaccinia mCherry: 1%; VACV Venus inh: -6%

How did Cc1ccc2oc(-c3cc(NC(=O)c4ccc5c(c4)OCCO5)cc(C)c3O)nc2c1 do in these assays?
Vaccinia mCherry: -6%; VACV Venus inh: -1%

Results for CCOC(=O)c1c(NC(=O)c2cnn3c2NC(c2cccc(OC)c2)CC3C(F)(F)F)sc2c1CCCC2 (stereo not given) ?
Vaccinia mCherry: -13%; VACV Venus inh: -6%

What do the screens show for `Cc1ccc(C(=O)N2CCOCC2)cc1[N+](=O)[O-]`?
Vaccinia mCherry: inactive; VACV Venus inh: -9%

Results for Cc1ccc(C)c(S(=O)(=O)Nc2ccc(C(N)=O)cc2)c1 ?
Vaccinia mCherry: -14%; VACV Venus inh: -10%

Results for Cc1ccc(Cl)cc1N1CCN(C(=O)CCn2c(=O)c3cccn3c3cccnc32)CC1 ?
Vaccinia mCherry: inconclusive; VACV Venus inh: -25%

How did OC(c1ccccc1)(c1nc(/C=C/c2ccc(C(F)(F)F)cc2)cs1)C(F)(F)F (stereo not given) do in these assays?
Vaccinia mCherry: -2%; VACV Venus inh: -22%

What do the screens show for `Cc1ccc(-c2[nH]ncc2C(=O)c2cccc(F)c2)c(O)c1`?
Vaccinia mCherry: inactive; VACV Venus inh: -20%

What do the screens show for `COc1ccccc1-c1cc2nc(NCCOc3ccccc3)ccn2n1`?
Vaccinia mCherry: -19%; VACV Venus inh: -10%

Results for CCSC(SCC)[C@H](O)[C@@H](O)[C@H](O)[C@H](O)CO ?
Vaccinia mCherry: inactive; VACV Venus inh: -13%

How did COc1ccc(S(=O)(=O)N(C)c2c(C)n(C)n(-c3ccccc3)c2=O)cc1OC do in these assays?
Vaccinia mCherry: inactive; VACV Venus inh: 0%

Results for CCN(CC(=O)Nc1ccc(S(=O)(=O)N2CCOCC2)cc1)Cc1ccccc1 ?
Vaccinia mCherry: inconclusive; VACV Venus inh: -13%

Part of the list above in order of SMILES length, ascending:
What do the screens show for `BrCCc1ccccc1`?
Vaccinia mCherry: inactive; VACV Venus inh: -6%

What do the screens show for `COc1cccc(CNC(=O)c2ccc(CS(=O)c3ccccc3)o2)c1` (stereo not given)?
Vaccinia mCherry: -20%; VACV Venus inh: -12%

Results for Cc1ccc(Cl)cc1N1CCN(C(=O)CCn2c(=O)c3cccn3c3cccnc32)CC1 ?
Vaccinia mCherry: inconclusive; VACV Venus inh: -25%

A stretch from the list above, as a working copy:
How did COc1ccc(S(=O)(=O)N(C)c2c(C)n(C)n(-c3ccccc3)c2=O)cc1OC do in these assays?
Vaccinia mCherry: inactive; VACV Venus inh: 0%

Results for CCN(CC(=O)Nc1ccc(S(=O)(=O)N2CCOCC2)cc1)Cc1ccccc1 ?
Vaccinia mCherry: inconclusive; VACV Venus inh: -13%

Going on with the list.
How did Cc1ccc(CNC(=O)c2cc(=O)c3cc(C)cc(C)c3o2)cc1 do in these assays?
Vaccinia mCherry: -6%; VACV Venus inh: -14%

What do the screens show for `CCn1c2c(c(=O)n3ncc(C(=O)N4CCN(c5ccc(C(C)=O)cc5)CC4)c13)CN(Cc1ccc(OC)cc1)CC2`?
Vaccinia mCherry: -24%; VACV Venus inh: -17%

Results for O=C(O)C1C(=O)NCC1c1ccccc1 (stereo not given) ?
Vaccinia mCherry: -1%; VACV Venus inh: -9%

How did COc1ccc(OC)c(CNC(=O)C2CCN(c3nc4ccccc4nc3C(F)(F)F)CC2)c1 do in these assays?
Vaccinia mCherry: 4%; VACV Venus inh: -10%

Results for O=C(O)c1cnn(-c2ccccc2)c1-c1ccncc1 ?
Vaccinia mCherry: -6%; VACV Venus inh: -20%

How did O=C(N/N=C/c1ccc(N2CCOCC2)cc1)c1ccc(NS(=O)(=O)c2cccs2)cc1 do in these assays?
Vaccinia mCherry: -11%; VACV Venus inh: -2%

How did Cc1cc(C(F)F)nn1CC(=O)NC1CCCCCC1 do in these assays?
Vaccinia mCherry: -12%; VACV Venus inh: -20%

How did Cc1ccc2nc(NC(=O)CCCC(=O)O)sc2c1 do in these assays?
Vaccinia mCherry: inactive; VACV Venus inh: -3%

What do the screens show for `COc1ccc(-c2sc(Nc3cccc4ccccc34)n[n+]2C)c(C)c1C`?
Vaccinia mCherry: inactive; VACV Venus inh: 3%

What do the screens show for `O=C1c2ccccc2C(=O)N1CCCCc1cn(C[C@H]2CC[C@H](Cn3cc(CCCCN4C(=O)c5ccccc5C4=O)nn3)O2)nn1`?
Vaccinia mCherry: -4%; VACV Venus inh: -15%

How did O=C(N/N=C/c1ccccc1F)NC1CCCCC1 do in these assays?
Vaccinia mCherry: -26%; VACV Venus inh: -11%

What do the screens show for `COc1cc(C)ccc1S(=O)(=O)NC(=O)Cn1nnc(COc2ccc3c(c2)CCCC3)c1C`?
Vaccinia mCherry: -20%; VACV Venus inh: -2%

Results for COc1ccc(C(=O)/C=C/c2ccc(OC(=O)c3cc(OC)c(OC)c(OC)c3)cc2)cc1 ?
Vaccinia mCherry: -9%; VACV Venus inh: -7%

Results for CCOc1ccccc1NS(=O)(=O)c1cn(C)c(=O)n(C)c1=O ?
Vaccinia mCherry: -1%; VACV Venus inh: 11%

Results for Cc1cccc(NC(=O)CN(C)C(=O)c2ccc(N3CCCCCC3)c([N+](=O)[O-])c2)c1C ?
Vaccinia mCherry: -23%; VACV Venus inh: -17%

What do the screens show for `CCCn1c2c(c(O)c(C(=O)Nc3ccc(OCC)cc3)c1=O)CCCC2`?
Vaccinia mCherry: -10%; VACV Venus inh: 6%

Results for C=CC[C@@H](CC(=O)N(CCO)Cc1ccccc1)C(=O)N[C@@H](COC(=O)[C@@H](CC=C)CC(=O)OC(C)(C)C)Cc1c[nH]c2ccccc12 ?
Vaccinia mCherry: -28%; VACV Venus inh: inconclusive

How did COc1ccc(NC(=S)Nn2cnnc2)cc1OC do in these assays?
Vaccinia mCherry: inconclusive; VACV Venus inh: inconclusive

How did CCOC(=O)c1c(C)[nH]c(C)c1S(=O)(=O)NCC(=O)N1CCN(c2ccccc2OC)CC1 do in these assays?
Vaccinia mCherry: -21%; VACV Venus inh: -15%

Results for Cc1ccc(NC(=O)/C(=C/c2cccs2)NC(=O)c2ccco2)cc1 ?
Vaccinia mCherry: -1%; VACV Venus inh: -2%

What do the screens show for `O=C(NC1CCCCCC1)c1c(O)c2ccccc2[nH]c1=O`?
Vaccinia mCherry: -12%[1.46 µM]; VACV Venus inh: -14%

Results for COc1cccc2cc(C(C)N(CCCN3CCOCC3)C(=S)Nc3cccc(C)c3C)oc12 (stereo not given) ?
Vaccinia mCherry: inactive; VACV Venus inh: -7%

Results for COC(=O)C1=NN(C(C)=O)C2(CC(=O)N(c3cccc(C)c3)C2=O)C1 (stereo not given) ?
Vaccinia mCherry: -10%; VACV Venus inh: -4%

How did CCC(=O)Nc1nnc(/C=C/c2ccc(OC)cc2)s1 do in these assays?
Vaccinia mCherry: inactive; VACV Venus inh: -14%

How did COc1ccc(OC)c(-n2c(=S)[nH]c3cc(C(=O)N4CCCCC4)ccc3c2=O)c1 do in these assays?
Vaccinia mCherry: inactive; VACV Venus inh: -8%

What do the screens show for `COCCNC(=O)c1ccc(C(=O)C(=O)c2ccccc2)cc1`?
Vaccinia mCherry: inactive; VACV Venus inh: -11%

How did CN(C)c1ccc(/C=c2\[nH]c(=O)/c(=C\c3ccc(N(C)C)cc3)[nH]c2=O)cc1 do in these assays?
Vaccinia mCherry: inactive; VACV Venus inh: -6%

How did CCO/C=C1\SC(=S)N(c2ccc(Cl)cc2)C1=O do in these assays?
Vaccinia mCherry: 32%[activator]; VACV Venus inh: 213%[activator]

Results for CSc1nnc(NC(=O)c2nc(S(=O)(=O)Cc3ccc(C)cc3)ncc2Cl)s1 ?
Vaccinia mCherry: inactive; VACV Venus inh: -2%

What do the screens show for `Cc1cn2c(=O)c(S(=O)(=O)NCc3ccccc3Cl)c(C)nc2s1`?
Vaccinia mCherry: -19%; VACV Venus inh: -18%

Results for CN(C)c1ncnc2c1ncn2[C@H]1CN(Cc2ccco2)C[C@@H](CO)O1 ?
Vaccinia mCherry: inactive; VACV Venus inh: -3%

How did CCOc1ccc(NC(=O)C2CCCN(S(=O)(=O)c3c(C)n[nH]c3C)C2)cc1 (stereo not given) do in these assays?
Vaccinia mCherry: inactive; VACV Venus inh: -3%

How did O=C(NC(=S)NCc1cccnc1)c1cccc2ccccc12 do in these assays?
Vaccinia mCherry: -1%; VACV Venus inh: -11%

What do the screens show for `O=C(CSc1nc2ncccc2[nH]1)NCCc1ccccc1`?
Vaccinia mCherry: inactive; VACV Venus inh: -11%

How did CCN(C[C@H]1N[C@@](Cc2ccccc2)(C(=O)OC)[C@H]2C(=O)N(Cc3ccccc3)C(=O)[C@@H]12)S(=O)(=O)c1ccc(-c2ccccc2)cc1 do in these assays?
Vaccinia mCherry: inactive; VACV Venus inh: -8%

Results for Cc1ccc2c(c1)NC(=O)C(CC(=O)NCCCN1CCc3ccccc3C1)O2 (stereo not given) ?
Vaccinia mCherry: -2%; VACV Venus inh: -7%

What do the screens show for `O=C(NC(=S)Nc1ccccc1)c1cccs1`?
Vaccinia mCherry: inactive; VACV Venus inh: -8%

How did COc1ccc(-c2nnc(SCC(N)=O)n2N)cc1 do in these assays?
Vaccinia mCherry: inactive; VACV Venus inh: 0%

Results for COc1ccc(-c2nc(NC(=O)c3ccc(OCC(=O)Nc4ccc(F)cc4)c(OC)c3)sc2C)cc1 ?
Vaccinia mCherry: inconclusive; VACV Venus inh: inconclusive

How did CCCC(=O)Nc1ccc(-c2nc3ncccc3o2)cc1C do in these assays?
Vaccinia mCherry: -10%; VACV Venus inh: -10%

How did COc1ccc(CNC(=O)[C@H](Cc2ccccc2)NC(=O)C2CCNCC2)cc1 do in these assays?
Vaccinia mCherry: inactive; VACV Venus inh: -16%

How did CC(=O)Nc1ccc(NCCc2cccs2)cc1 do in these assays?
Vaccinia mCherry: 4%; VACV Venus inh: -6%

Results for O=C(NCC(=O)N1CCOCC1)c1ccc(Cl)c(Cl)c1 ?
Vaccinia mCherry: -13%; VACV Venus inh: -1%

Results for CC1CCCC(C)N1/N=C/c1ccc(N(C)C)cc1 (stereo not given) ?
Vaccinia mCherry: -25%; VACV Venus inh: -4%

How did NS(=O)(=O)c1cccc(NC(=O)c2cccc(Oc3ccccc3)c2)c1 do in these assays?
Vaccinia mCherry: 0%; VACV Venus inh: -3%

What do the screens show for `CCOc1ccc(NC(=O)CCS(=O)(=O)c2ccc3nc(C)sc3c2)cc1`?
Vaccinia mCherry: -21%; VACV Venus inh: -6%

Results for COc1ccc(C(CC(C)=O)c2c(O)c3ccccc3oc2=O)cc1OC (stereo not given) ?
Vaccinia mCherry: inactive; VACV Venus inh: -7%

Results for Cn1c(CCC(=O)O)nc2cc(S(=O)(=O)N3CCCC3)ccc21 ?
Vaccinia mCherry: inactive; VACV Venus inh: -2%

How did COc1ccc(NS(=O)(=O)c2cccc(C(=O)N3CCCC(C)C3)c2)cc1 (stereo not given) do in these assays?
Vaccinia mCherry: -7%; VACV Venus inh: -5%

What do the screens show for `CCn1c(N2CCN(S(=O)(=O)c3ccc(F)cc3)CC2)nc2ccccc21`?
Vaccinia mCherry: -17%; VACV Venus inh: -24%

Results for COC(=O)C1=C(C)NC(=O)/C1=C\c1cc(C)n(-c2ccccc2F)c1C ?
Vaccinia mCherry: -16%; VACV Venus inh: 7%

How did Cc1ccc(C)c(C(=O)CC2(O)C(=O)Nc3ccccc32)c1 (stereo not given) do in these assays?
VACV Venus inh: -9%

Results for O=C(NCCS(=O)(=O)NCc1ccc(Cl)cc1)c1ccccc1 ?
Vaccinia mCherry: -12%; VACV Venus inh: -12%

How did CS(=O)(=O)N(CC(=O)N1CCCC1)c1ccc(OCc2ccccc2)cc1 do in these assays?
Vaccinia mCherry: -25%; VACV Venus inh: -20%

What do the screens show for `COCCn1c(C)cc(O)c(C(c2ccccc2)N2CCN(c3ccc(F)cc3)CC2)c1=O` (stereo not given)?
Vaccinia mCherry: -5%; VACV Venus inh: -15%

Results for O=c1[nH]c2ccc(NS(=O)(=O)c3ccc(F)cc3)cc2s1 ?
Vaccinia mCherry: -9%[7.34 µM]; VACV Venus inh: -7%[7.34 µM]

Results for O=C(NCCC1=CCCCC1)c1ccc(CN2CCOCC2)cc1 ?
Vaccinia mCherry: -13%; VACV Venus inh: -10%

Not a hit list. About 0.87% of those tested had a hit in this group.
